Assay outcomes deposited in PubChem BioAssay by National Center for Advancing Translational Sciences (NCATS).
Cruzain Triton: cruzain (T. cruzi) inhibition with detergent; P25779; purified cruzain, Z-FR-AMC fluorescence, 0.01% Triton; Potency, µM, without a hit: max response, negative = inhibition, most hits filed as inhibitors; 200,000 tested, 0.43% active; active = well fitted curve in the direction sought with a large enough effect; inconclusive = small, poorly fitted or top-dose-only effect, or another doubt; inactive = no such curve, though single readings can be large; an effect the other way counts as inactive or inconclusive;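 also: plate controls were neutral wells for no effect and buffer without enzyme for full effect; nearly all actives have a fitted effect of over 40% in size; top concentration of the series not given in the record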
Target sequence (P25779 123-467 limits assumed): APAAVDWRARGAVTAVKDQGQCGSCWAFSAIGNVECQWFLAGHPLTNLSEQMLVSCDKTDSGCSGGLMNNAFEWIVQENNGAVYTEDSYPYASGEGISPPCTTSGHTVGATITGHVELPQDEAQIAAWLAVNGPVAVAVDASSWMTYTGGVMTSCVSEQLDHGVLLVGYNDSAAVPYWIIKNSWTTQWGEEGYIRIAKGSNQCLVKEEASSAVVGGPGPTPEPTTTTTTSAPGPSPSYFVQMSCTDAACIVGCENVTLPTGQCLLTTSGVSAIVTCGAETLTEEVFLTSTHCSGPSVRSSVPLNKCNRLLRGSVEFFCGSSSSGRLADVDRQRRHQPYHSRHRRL
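Detergent-containing run (0.01% Triton X-100) in acetate buffer pH 5.5 with 5 mM DTT: enzyme at 1.5 nM final, 15 min compound preincubation at room temperature, then 2 uM Z-FR-AMC substrate. Activity taken as 60 s fluorescence increase at 360/450 nm.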
LASV entry inh: inhibitors of Lassa virus binding or cell entry; 300,000 tested, 1.2% active; AID 540256; Potency, µM (doses to about 37.9 µM), for inactives: at the highest dose activity change, negative = inhibition, actives largely listed as inhibitors; Lassa virus pseudotype entry inhibition, cell reporter; control for the full effect not named in the record; active means well fitted inhibition curve with a large enough effect; inconclusive means small, poorly fitted or top-dose-only effect, or effect the other way; inactive means flat fitted curve, though single readings scatter; tested in HEK293 cells; also: % is scaled to controls: 0 for no effect and ±100 for the full control effect; nearly all actives have a fitted effect of over 50% in size; luciferase read-out
RE007 growth inh: less growth of the S. pombe RE007 Vpr strain. S. pombe RE007 Vpr strain, BacTiter-Glo ATP luminescence, 24 h; control for the full effect not named in the record. Potency, µM (series often up to 92.2 µM), for the others: at the top dose activity change, negative = less growth. 360,000 tested, 0.21% active. AID 651644; active = well fitted falling curve with a large enough effect; inconclusive = small, poorly fitted or top-dose-only effect; inactive = no such curve, though single readings can be large or run the other way;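 also: % is scaled to controls: 0 for no effect and ±100 for the full control effect; nearly all actives have a fitted effect of over 50% in size; the assay follows cell death caused by Vpr and the record does not say whether a fall means rescue or toxicity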
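Fission yeast strain RE007, carrying one chromosomally integrated HIV-1 vpr copy, was seeded at OD 0.01 in PMG+AL medium with 23 nL pinned compound. After 24 h at 30 °C and 99% humidity, viability was read by BacTiter-Glo luminescence.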
SARS PLP yeast: SARS-CoV PLP inhibition in yeast; Potency, µM (highest dose often 32.9 µM), for inactives: at the top dose activity, positive = growth rescue; 330,000 tested, 0.19% active; S. cerevisiae expressing SARS-CoV PLpro, growth rescue; control for the full effect not named in the record; also: 0% is about no effect; nearly all actives have a fitted effect of over 55% in size; growth read by luminescence after 48 h
StopGo reporter: lowers the luciferase signal of an FMDV 2A StopGo reporter | human cells with a luciferase reporter of 2A StopGo recoding; control for the full effect not named in the record | Potency, µM (doses to about 57.9 µM), inactives show top-dose signal change, negative = less light | 410,000 tested, 1.2% active | AID 1159524; active = well fitted falling curve with a large enough effect; inconclusive = small, poorly fitted or top-dose-only effect; inactive = no such curve, though single readings can be large or run the other way; tested in HEK293T cells; also: % is scaled to controls: 0 for no effect and ±100 for the full control effect; nearly all actives have a fitted effect of over 45% in size; luciferase light after 4 h
Cruzain inh noDet: blocks cruzain activity in detergent-free assay | 200,000 tested, 2.3% active | purified cruzain, Z-FR-AMC fluorescence, no detergent | P25779 | Potency, µM, for the others: max response, negative = inhibition, actives largely listed as inhibitors; active = well fitted curve in the direction sought with a large enough effect; inconclusive = small, poorly fitted or top-dose-only effect, or another doubt; inactive = no such curve, though single readings can be large; an effect the other way counts as inactive or inconclusive;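 also: plate controls were enzyme without inhibitor for no effect and buffer without enzyme for full effect; nearly all actives have a fitted effect of over 40% in size; top concentration of the series not given in the record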
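Detergent-free condition (0.00005% Triton X-100) in acetate buffer pH 5.5 with DTT. 1.5 nM enzyme and compound were pre-mixed 15 min, then 2 uM Z-FR-AMC substrate added; reaction progress from fluorescence change between first and third reads (60 s).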
NS1 inh: blocks influenza NS1 protein function; S. cerevisiae slowed by influenza A NS1, growth recovery by OD600; Potency, µM (titrated, usually from 46.1 µM), for the others: at the top dose activity, positive = more growth; 270,000 tested, 0.4% active; AID 2326; also: actives are rising curves; nearly all actives have a fitted effect of over 50% in size
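OD600 was taken as the measure of yeast growth restored by compound in an NS1-expressing S. cerevisiae strain. Cells had been washed out of glucose medium and diluted 1:100 into galactose -URA medium, pH 6.0.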
MARV entry inh: Marburg virus entry inhibition. AID 540276. Potency, µM (doses to about 37.8 µM), for inactives: at the top dose activity change, negative = inhibition, most hits filed as inhibitors. Marburg virus pseudotyped entry inhibition, cell reporter; control for the full effect not named in the record; about a third of the inactives were read at about 46 µM. 300,000 tested, 1.8% active; active = well fitted inhibition curve with a large enough effect; inconclusive = small, poorly fitted or top-dose-only effect, or effect the other way; inactive = flat fitted curve, though single readings scatter; tested in HEK293 cells; about a fifth of its hits are not listed in these tables; also: % is scaled to controls: 0 for no effect and ±100 for the full control effect; luciferase read-out
* = called active by the depositor; u = inconclusive; x = no result given; & = joins results of further samples; [ ] = dose if it differs, or a comment. Unless noted, calls follow the shape of the dose curve; as a rule, active means well fitted rising curve with a large enough effect; inconclusive means small, poorly fitted or top-dose-only effect; inactive means no such curve, though single readings can be large or run the other way. Potency is read from the fitted curve at half-maximal effect.

SMILES	Cruzain Triton	LASV entry inh	RE007 growth inh	SARS PLP yeast	StopGo reporter	Cruzain inh noDet	NS1 inh	MARV entry inh
C=C(C)c1cccc(C(C)(C)NC(=O)NNC(=O)c2ccccc2O)c1	x	-17.6%	6.9%	5.4%	38.4%[activator]	x	11.7%	-26.1%[46.1 µM]
O=C(CSc1nnc(COc2cccc3cccnc23)o1)N1CCN(C(=O)c2ccco2)CC1	-3.2%	2.1%	-10.4%	-7.1%	0.0%	-1.3%	8.4%	-3.8%
COc1ccc(C(=O)NCCC2=CCCCC2)cc1OC1CCN(C(C)C)CC1	x	20.5%[46.1 µM]	-11.4%	u	15.1%	x	-4.9%	u
Cc1ccccc1OCC(=O)OCc1cc(=O)n2ccsc2n1	-7.8%	-4.3%[46.1 µM]	x	x	-23.2%	-10.1%	x	x
O=C1CC(c2cccc(F)c2)C2=C(CCCC2=O)N1 (stereo not drawn)	-2.5%	8.2%	-3.6%	-0.4%	-16.0%	4.6%	-5.9%	2.6%[46.1 µM]
CSC1=NCCN1C(=O)c1c(F)cccc1Cl	u	0.0%	38.2%	1.2%	-1.8%	-13.7%	-1.6%	u
COC(=O)Nc1cc(C)n(-c2ccccc2)n1	x	10.5%	-25.3%	0.8%	-9.8%	x	1.0%	3.1%
COc1ccc(C(=O)C2CCCN(C3Cc4ccccc4C3)C2)cc1OC (stereo not drawn)	x	-10.5%	-6.1%	0.7%	-21.2%	x	4.6%	-25.2%[46.1 µM]
O=C(c1coc(=O)c2ccccc12)N1CCN(Cc2ccccc2)CC1	3.8%	21.1%	3.7%	-0.9%	-12.1%	-0.9%	-5.8%	6.1%
Cc1cc(C(=O)CN2C(=O)C(=O)N(CCC3=CCCCC3)C2=O)c(C)n1C	x	-7.5%	-8.4%	-1.2%	-11.0%	x	x	u
CCN(CC)S(=O)(=O)c1ccc(-c2nnc(SCC(=O)Nc3ccc4c(c3)OCO4)o2)cc1	7.7%	9.5%	10.0%	4.5%	x	-7.9%	u	-5.9%&-15.5%
O=C(C1CC1c1ccccc1)N1CCN(c2cccc(Cl)c2)CC1 (stereo not drawn)	-3.9%	-26.2%	-12.8%	-17.6%	-5.1%	-2.9%	-30.1%	6.6%
COC(=O)/C=C/c1oc2ccccc2c1C	x	3.3%[46.1 µM]	6.4%	0.3%	-18.1%	x	x	u
Cc1cnc(C(=O)Nc2ccc(N3CCN(C(=O)OC(C)(C)C)CC3)cc2)cn1	-1.9%	u	-1.2%	0.8%	u	-10.0%	-3.4%	u
Cc1ccc2c(CNCc3ccc(C)o3)c(C(=O)O)n(Cc3ccc(F)cc3)c2c1	-4.9%	-21.2%[46.1 µM]	x	x	-6.2%	u	x	x
NC(=O)c1ccc(NC(=O)c2ccc3c(c2)CCN3S(=O)(=O)c2ccccc2)cc1	x	-14.1%[46.1 µM]	-7.7%	2.7%	6.7%	x	-15.1%	u
O=C(O)c1ccc(NC(=S)NCc2ccccc2)cc1	x	1.3%[46.1 µM]	9.5%	7.3%	25.8%	x	10.8%	3.2%[46.1 µM]
Cc1cccc(N2CCN(CC(=O)Nc3ccccc3[N+](=O)[O-])CC2)c1C	0.0%	-28.0%	16.4%	4.7%	4.6%	-5.3%	1.8%	-10.8%
COC(=O)c1sc(-c2ccc(Cl)cc2)cc1NC(=O)c1ccccc1C(=O)O	x	11.0%	14.4%	-2.3%	-13.8%	x	7.1%	-7.9%[46.1 µM]
CCN(CC(=O)NCc1ccc(F)cc1)C(=O)C1CC1C (stereo not drawn)	x	u	-1.3%	11.6%	-3.0%	x	-13.4%	-3.5%[46.1 µM]
Cc1ccc(-c2cc(-c3ccccc3[N+](=O)[O-])[nH]n2)c(O)c1	-12.7%	-7.2%	-10.2%	-16.3%	72.1%[activator]	-7.8%	-135.0%	18.8%
N#C/C(=C\c1cn(CC(=O)N2CCCC2)c2ccccc12)C(=O)NCc1ccc2c(c1)OCO2	-6.0%	0.8%	-9.7%	-23.3%	-11.6%	27.7%	-4.9%	2.1%
O=C(C[N+]12CCC(CC1)C(OC(=O)c1ccccc1)C2)c1ccc([N+](=O)[O-])cc1 (stereo not drawn)	x	x	-5.4%	5.1%	0.8%	x	10.1%	x
CC1CCN(CCc2nc3ccccc3[nH]2)CC1	x	28.3%[46.1 µM]	-9.8%	0.3%	-9.2%	x	0.7%	1.8%[46.1 µM]
Cc1ccc(CNC(=O)c2cc3c(s2)CN(Cc2ccccc2)C3)cc1	x	u	-7.2%	-0.9%	u	x	x	u
O=C(Nc1nccs1)c1ccc(S(=O)(=O)N2CCCCC2)cc1	-4.8%	x	-1.4%	0.2%	1.2%	-10.5%	-19.1%	-5.7%
Cc1ccccc1-n1c(SCC(=O)N2CCN(c3ccccn3)CC2)nnc1N1CCOCC1	x	2.0%	-1.6%	0.5%	-21.1%	x	x	2.0%
Cc1ccc(S(=O)(=O)c2nnn(CC(=O)Nc3ccccc3C)c2N)cc1C	-1.8%	-3.5%[46.1 µM]	x	x	-6.6%	-7.4%	x	-4.1%[46.1 µM]
Cc1oc(-c2cccc3ccccc23)nc1CN1CCN(c2ncnc3ccccc23)CC1	x	u	-17.5%	-1.5%	15.8µM*	x	-11.7%	u
O=C(c1cn(-c2ccccc2)nc1-c1ccncc1)N1CCCCC1	-3.2%	5.6%	-0.1%	1.7%	-2.3%	-8.9%	-5.8%	-13.1%
Cc1nonc1C1CCCN1Cc1cn[nH]c1-c1ccc2c(c1)OCO2 (stereo not drawn)	x	7.9%[46.1 µM]	-5.7%	1.1%	-7.1%	x	3.8%	-0.7%[46.1 µM]
C/C(=N\NC(=O)c1ccc(O)cc1)c1ccc(NC(=O)Cc2ccccc2)cc1	x	x	5.8%	6.7%	12.0%	x	2.5%	x
CC(C)OCCCn1c(SC(C)C(=O)NC2CC2)nc2ccccc2c1=O (stereo not drawn)	x	-0.6%	15.7%	-6.4%	-7.6%	x	x	9.3%
Cc1cccc(NC(=O)CSc2nnnn2C2CCCC2)c1	x	-11.9%[46.1 µM]	-14.1%	0.8%	7.0%	x	-6.9%	-16.8%[46.1 µM]
O=C(NC(=S)N1CCCc2ccccc21)c1ccco1	x	2.5%	12.5%	0.5%	2.2%	x	10.3%	6.6%[46.1 µM]
O=C(CN1C(=O)c2cccc3cccc1c23)Nc1ccccc1Br	-1.3%	u	x	x	-2.5%	11.2%	x	27.5%[46.1 µM]
COC(=O)c1cc(C(=O)CC(C)C)c[nH]1	x	-18.6%	1.2%	1.0%	17.4%	x	0.5%	15.4%[46.1 µM]
COc1cccc(NC(=O)C2CCCO2)c1 (stereo not drawn)	x	28.9%	1.5%	-4.9%	18.6%	x	7.3%	u
CCOC(=O)Cc1[nH]nc2c1C(C1C=CCCC1)C(C#N)=C(N)O2 (stereo not drawn)	-2.9%	1.3%	-0.3%	3.1%	u	-8.4%	-6.7%	6.4%
CCOc1cccc(CC(=O)N2CCc3c([nH]c4ccccc34)C2c2ccc(Cl)cc2)c1OCC (stereo not drawn)	2.6%	u	x	x	-16.7%	20µM*	x	x
CC1Cc2c([nH]c3ccccc23)C(=O)N1 (stereo not drawn)	x	-11.5%	-0.7%	-4.2%	9.8%	x	-7.2%	5.1%
COc1ccc(OCCSc2nnc3sc4ccccc4n23)cc1	-4.2%	15.5%	9.7%	-7.3%	x	-0.8%	-81.7%	2.8%
COc1ccc(CCNS(=O)(=O)CCNC(=O)c2ccc3c(c2)OCO3)cc1	x	20.0%	2.4%	-3.5%	11.0%	x	x	4.5%
O=C(c1ccccc1)c1c[nH]cc1-c1ccccc1	1.2%	3.0%	-7.9%	4.4%	-13.1%	-3.5%	-0.9%	3.6%
O=C(COC(=O)c1ccc2c(=O)n3c(nc2c1)CCC3)NC1CCS(=O)(=O)C1 (stereo not drawn)	x	-4.1%	-9.3%	1.7%	-2.1%	x	7.8%	21.8%
Cc1ccc(S(=O)(=O)NCCc2cc3ccc(C)c(C)c3[nH]c2=O)cc1	x	-18.5%[46.1 µM]	3.7%	-3.4%	-1.4%	x	12.4%	u
COc1ccc(C(=O)Nc2nc(C)c(C(=O)N(C)C)s2)cc1OC	2.9%	-13.4%	0.8%	0.3%	49.0%[activator]	-0.4%	-5.7%	24.4%
CNC(=O)C(=O)NCCc1ccc(Cl)cc1	1.1%	11.7%	6.2%	14.5%	-3.9%	3.5%	10.4%	9.6%[46.1 µM]
CN(C)c1ccc(C(CNC(=O)COc2ccccc2)N2CCOCC2)cc1 (stereo not drawn)	-1.1%	-3.2%[46.1 µM]	x	x	-19.6%	0.9%	x	x
COc1ccc(OC)c(C2NC(=O)NC(C)=C2C(=O)Nc2ccc(C)cc2C)c1 (stereo not drawn)	3.2%	0.2%	1.5%	13.3%	6.7%	3.0%	-6.0%	12.3%
O=C(c1ccc2ncsc2c1)N1CCN(c2ccc(O)cc2)CC1	0.0%	u	3.7%	-1.3%	4.1%	-2.2%	3.4%	-17.2%
COc1ccc(Cn2ccnc2SCC(=O)NCc2ccco2)cc1	-1.2%	-13.1%[46.1 µM]	x	x	11.3%	-5.8%	x	x
CC(C)C(NC(=O)C12CC3CC(CC(C3)C1)C2)C(=O)N/N=C/C1=C(N2CCOCC2)C(=C\c2ccc([N+](=O)[O-])cc2)/CC1 (stereo not drawn)	-6.1%	17.5%	3.7%	6.3%	-8.1%	-9.5%	14.7%	1.3%
COc1ccc(-n2ncc3c2CC(C)(C)CC3NC(=O)c2cnc(C)cn2)cc1 (stereo not drawn)	x	x	2.0%	-2.5%	-15.1%	x	-7.3%	x

Copied from the list:
`COc1ccc(C(=O)Nc2nc(C)c(C(=O)N(C)C)s2)cc1OC` @ SARS PLP yeast: 0.3%
`O=C(c1ccc2ncsc2c1)N1CCN(c2ccc(O)cc2)CC1` @ MARV entry inh: -17.2%

The order is random; 4.6% or so of the library scored in one or more.
